MITF inhib: blocks MITF activity | TRPM1 promoter luciferase, luminescence, 24 h | inhibition, % (concentration not given with the values) | 37,000 compounds, 0.28% hits | AID 2240;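 active = most replicates at 85% or more, or half of them and the mean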;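 also: human melanocyte line stably carrying TRPM1 promoter luciferase reporter; 0% = vehicle wells and 100% = a positive control; the first replicate is given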
PD-1 reversal: activators reversing PD-1 mediated T-cell inhibition | primary human CD4 T cells, PD-L1 beads, CellTiter-Glo 96 h | activation, % (test concentration not listed) | 29,000 tested, under 10 active;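 active = replicate mean of 50% or more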;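 also: 0% = median vehicle wells and 100% = positive control; 100 nL library stock added to about 50 µL; numbers are from one replicate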
YB-1 expr inh: YB-1 expression inhibition; U2OS, qRT-PCR YB-1 vs CDIP delta delta Cp, 16 h; active compounds read high; zero = DMSO, each unit about twofold; delta delta Cp (YB-1 minus CDIP) (test concentration not listed); 30,000 compounds, 0.37% hits; AID 434959;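 active = delta delta Cp rounded down to an integer at or above 3, about 3 SD of DMSO wells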;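 also: higher means less YB-1 transcript or more CDIP transcript relative to DMSO; stock transfer was 100 nL into about 100 µL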
Hedgehog inh: blocks Sonic Hedgehog signaling. 22,000 compounds, 2.1% hits. Shh-LIGHT2 Gli-luciferase reporter, 30 h. inhibition, % (test concentration not listed);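 active = replicate mean of 65% or more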;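 also: pathway switched on by Shh-conditioned medium diluted 1 in 25 in low serum; 100 nL library stock added to about 40 µL; 0% = median of neutral wells and 100% = positive control level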
Numbers without * were called inactive; . = no result given.

SMILES | MITF inhib | PD-1 reversal | YB-1 expr inh | Hedgehog inh
COc1ccc(-c2coc3cc(O)ccc3c2=O)c(OC)c1 | -5.8 | . | -0.145 | 80.0*
O=C(CSc1nc2ccccc2nc1N1CCCC1)NCCc1ccc(Cl)cc1 | 23.4 | -3.9 | -0.431 | 26.8
COc1ccc2c(=O)ccoc2c1 | -3.6 | . | 0.25 | 16.1
C[C@@H]1CN([C@H](C)CO)C(=O)Cc2cc(NC(=O)Nc3ccc4c(c3)OCO4)ccc2O[C@H]1CN(C)S(=O)(=O)c1ccc(F)cc1 | 3.4 | -0.6 | -0.251 | -15.5
O=C(NCCCO)C(=O)NCC1COc2ccccc2O1 (stereo not given) | -11.5 | 2.1 | . | .
COc1ccc(NC(=O)Nc2cccc3c2O[C@@H](CN(C)Cc2ccc(Cl)c(Cl)c2)[C@H](C)CN([C@H](C)CO)C3=O)cc1 | 40.9 | . | 0.0495 | -4.8
Cc1noc(C)c1NC(=O)Nc1ccc2c(c1)CC(=O)N([C@@H](C)CO)C[C@H](C)[C@H](CN(C)C(=O)NC(C)C)O2 | -7.3 | . | 0.124 | .
C[C@@H]1CN([C@H](C)CO)C(=O)c2cc(NC(=O)Nc3ccc(F)cc3)ccc2O[C@@H]1CN(C)Cc1ccc(C(=O)O)cc1 | -8.9 | 1.0 | -0.033 | -36.8
CCN(CC)CCNc1ncnc2c1sc1nc(N3CCCC3)c3c(c12)CC(C)(C)OC3 | -23.4 | -10.2 | . | .
Cc1ccc(S(=O)(=O)Nc2ccc3c(c2)C(=O)N([C@H](C)CO)C[C@H](C)[C@H](CN(C)C(=O)Nc2cccc4ccccc24)OCCCC[C@@H](C)O3)cc1 | 10.8 | -1.1 | -0.243 | -8.8
C[C@@H]1CN([C@H](C)CO)C(=O)c2cc(NC(=O)Cc3ccccc3)ccc2O[C@H]1CN(C)Cc1ccc(-c2ccccc2)cc1 | 29.0 | -9.8 | 0.282 | -12.1
COc1cccc(C(=O)c2oc3ccccc3c2NC(=O)COc2ccccc2)c1 | 1.2 | -1.7 | . | .
Cc1cccc(C(=O)Nc2cccc(OCC(=O)O)c2)c1 | -3.0 | 2.3 | . | .
Cc1noc(C)c1NC(=O)N(C)C[C@H]1Oc2ccc(N(C)C)cc2CC(=O)N([C@@H](C)CO)C[C@@H]1C | -3.8 | 1.4 | -0.117 | -19.6
C[C@@H]1CN([C@H](C)CO)C(=O)c2cc(NS(C)(=O)=O)ccc2O[C@H]1CN(C)C(=O)Nc1ccc(F)cc1 | -8.9 | 1.0 | -0.07 | -39.5
C[C@@H]1CN([C@H](C)CO)C(=O)c2cc(NC(=O)Nc3ccc(C(F)(F)F)cc3)ccc2O[C@@H]1CN(C)Cc1ccc(Oc2ccccc2)cc1 | 2.6 | -4.6 | 0.0652 | 17.3
COc1ccc(CN(C)C[C@H]2OCCCC[C@@H](C)Oc3ccc(NC(=O)Cc4ccccc4)cc3C(=O)N([C@H](C)CO)C[C@@H]2C)cc1 | 1.4 | . | -17.1 | -9.4
Cc1ccc(S(=O)(=O)N(C)C[C@@H]2OCCCC[C@@H](C)Oc3ccc(NC(=O)Nc4cccc5ccccc45)cc3C(=O)N([C@H](C)CO)C[C@@H]2C)cc1 | 4.8 | . | 0.117 | 5.7
CCCN(C)C[C@@H]1OCCCC[C@@H](C)Oc2ccc(NS(=O)(=O)c3ccc(F)cc3)cc2C(=O)N([C@H](C)CO)C[C@@H]1C | -25.3 | . | -0.129 | 60.4
COc1ccc(S(=O)(=O)N(C)C[C@H]2OCCCC[C@@H](C)Oc3ccc(NC(=O)NC(C)C)cc3C(=O)N([C@H](C)CO)C[C@@H]2C)cc1 | 12.3 | . | -14.8 | -12.8
O=C(CCSc1nc(-c2ccco2)cc(C(F)(F)F)n1)Nc1cccnc1 | -16.3 | -0.1 | . | .
C[C@@H]1CN([C@@H](C)CO)C(=O)Cc2cc(NC(=O)NC3CCCCC3)ccc2O[C@@H]1CN(C)C(=O)NC1CCCCC1 | -13.8 | 3.5 | 0.0123 | -6.3
C[C@H](CO)N1C[C@H](C)[C@H](CN(C)S(=O)(=O)c2cccs2)Oc2ccc(NC(=O)Nc3ccc4c(c3)OCO4)cc2CC1=O | 24.2 | 0.6 | 0.0294 | 0.5
C[C@@H]1CN([C@@H](C)CO)C(=O)c2cccc(NC(=O)NC3CCCCC3)c2O[C@H]1CN(C)C(=O)Nc1ccc(F)cc1 | 8.5 | . | -0.0779 | 12.6
c1ccc2[nH]c(SCCSc3nc4ccccc4[nH]3)nc2c1 | 43.2 | 0.7 | -0.077 | .
C[C@@H]1CN([C@@H](C)CO)C(=O)Cc2cc(NC(=O)C3CC3)ccc2O[C@@H]1CN(C)Cc1ccc(C(F)(F)F)cc1 | -3.6 | 2.1 | 0.0698 | -7.8
CC1(C)CC[C@]2(C(=O)O)CC[C@]3(C)C(=CCC4[C@@]5(C)C[C@@H](O)[C@H](O)C(CO)(CO)C5CC[C@]43C)C2[C@@H]1O (stereo not given in full) | . | . | 1.13 | -23.0
Nc1ncnc2c1c(I)cn2C1OC(CO)C(O)C1O (stereo not given) | 87.6* | . | -2.86 | 44.0
CCCc1occc(=O)c1CC=O | -35.4 | . | -0.155 | -36.0
C[C@H](CO)N1C[C@H](C)[C@H](CN(C)Cc2ccc(-c3ccccc3)cc2)Oc2ccc(NC(=O)Nc3ccc(F)cc3)cc2C1=O | 0.7 | 0.5 | 0.0415 | .
C[C@@H]1CN([C@@H](C)CO)C(=O)Cc2cc(NS(=O)(=O)c3cn(C)cn3)ccc2O[C@@H]1CN(C)Cc1ccc(C(=O)O)cc1 | -2.0 | 2.5 | -0.4 | 0.6
CC(C)NC(=O)Nc1cccc2c1O[C@H](CN(C)C(=O)Nc1ccccc1)[C@@H](C)CN([C@H](C)CO)C2=O | 0.5 | 0.6 | -0.0118 | -40.9
COc1ccc(OC)c(S(=O)(=O)N2CCC(C(=O)Nc3cccc(C(C)=O)c3)CC2)c1 | -0.8 | -0.7 | . | .
CC(C)NC(=O)Nc1ccc2c(c1)C(=O)N([C@H](C)CO)C[C@@H](C)[C@H](CN(C)Cc1ccc(C(F)(F)F)cc1)O2 | 0.1 | 0.6 | 0.0171 | .
C[C@H](CO)N1C[C@H](C)[C@H](CN(C)S(=O)(=O)c2cn(C)cn2)Oc2ccc(NC(=O)CCN3CCOCC3)cc2CC1=O | -11.3 | 1.3 | 0.15 | -20.0
COc1ccc(S(=O)(=O)N(C)C[C@@H]2Oc3ccc(NC(=O)Nc4cccc5ccccc45)cc3CC(=O)N([C@H](C)CO)C[C@H]2C)cc1 | 1.4 | -1.5 | -0.48 | .
C[C@@H]1CN([C@H](C)CO)C(=O)c2cc(NS(=O)(=O)c3ccc(F)cc3)ccc2O[C@H]1CN(C)C(=O)Nc1ccc2c(c1)OCO2 | -3.2 | 1.3 | 0.0174 | -42.0
C[C@H]1CN([C@@H](C)CO)C(=O)c2cccc(NS(=O)(=O)c3ccc(F)cc3)c2O[C@H]1CN(C)CC1CCCCC1 | -7.3 | 2.9 | -0.241 | 16.3
COc1ccc(OC)c(S(=O)(=O)N2CCC(C(=O)Nc3cccc(SC)c3)CC2)c1 | 46.9 | -1.7 | . | .
COc1ccc(OC)c(S(=O)(=O)Nc2cc([N+](=O)[O-])ccc2C)c1 | 5.4 | 0.9 | . | .
C[C@@H]1CN([C@@H](C)CO)C(=O)c2cccc(NC(=O)CCCCCC(=O)Nc3ccccc3N)c2O[C@H]1CN(C)C(=O)Nc1cccc2ccccc12 | 13.9 | 0.2 | 0.309 | .
C[C@H]1CN([C@@H](C)CO)C(=O)c2cc(NC(=O)Nc3cccc4ccccc34)ccc2O[C@H]1CN(C)Cc1ccc(C(=O)O)cc1 | 1.5 | 0.8 | 0.136 | 12.1
CC(C)CC(=O)c1c(O)cc(O)cc1OC1OC(COC(=O)c2cc(O)c(O)c(O)c2)C(O)C(O)C1O (stereo not given) | . | . | 1.64 | -16.2
COc1ccc(S(=O)(=O)Nc2ccc3c(c2)C(=O)N([C@@H](C)CO)C[C@H](C)[C@H](CN(C)S(=O)(=O)c2ccc(Cl)cc2)O3)cc1 | 15.6 | -1.9 | 0.0912 | .
COc1ccc(S(=O)(=O)N(C)C[C@H]2Oc3c(NC(=O)Nc4ccccc4)cccc3C(=O)N([C@@H](C)CO)C[C@@H]2C)cc1 | -14.1 | 3.1 | 0.135 | -36.9
C[C@@H]1CN([C@H](C)CO)C(=O)c2cc(NC(=O)C3CCCCC3)ccc2O[C@H]1CN(C)CC1CCCCC1 | -3.8 | 0.6 | 0.0645 | .
C[C@@H]1CN([C@@H](C)CO)C(=O)c2cccc(NS(C)(=O)=O)c2O[C@H]1CN(C)CC1CCCCC1 | -6.1 | 1.1 | 0.274 | -17.1
C[C@@H]1CN([C@H](C)CO)C(=O)Cc2cc(NS(=O)(=O)c3ccc(F)cc3)ccc2O[C@@H]1CN(C)S(=O)(=O)c1cn(C)cn1 | -7.3 | 1.1 | 0.0245 | -3.3

Part of the list above in order of count of non-hydrogen atoms, descending:
SMILES | MITF inhib | PD-1 reversal | YB-1 expr inh | Hedgehog inh
C[C@@H]1CN([C@H](C)CO)C(=O)Cc2cc(NC(=O)Nc3ccc4c(c3)OCO4)ccc2O[C@H]1CN(C)S(=O)(=O)c1ccc(F)cc1 | 3.4 | -0.6 | -0.251 | -15.5
C[C@@H]1CN([C@@H](C)CO)C(=O)Cc2cc(NC(=O)NC3CCCCC3)ccc2O[C@@H]1CN(C)C(=O)NC1CCCCC1 | -13.8 | 3.5 | 0.0123 | -6.3
CC(C)NC(=O)Nc1ccc2c(c1)C(=O)N([C@H](C)CO)C[C@@H](C)[C@H](CN(C)Cc1ccc(C(F)(F)F)cc1)O2 | 0.1 | 0.6 | 0.0171 | .

Going on with the list.
SMILES | MITF inhib | PD-1 reversal | YB-1 expr inh | Hedgehog inh
Cc1noc(C)c1NC(=O)Nc1cccc2c1O[C@@H](CN(C)S(=O)(=O)c1cn(C)cn1)[C@@H](C)CN([C@@H](C)CO)C2=O | 2.8 | 2.8 | -0.014 | -17.3
COc1ccc(CSc2ncn[nH]2)cc1[N+](=O)[O-] | -9.0 | -0.8 | . | .
COc1ccc(S(=O)(=O)N(C)C[C@@H]2Oc3ccc(NC(=O)Nc4c(C)noc4C)cc3CC(=O)N([C@H](C)CO)C[C@H]2C)cc1 | 2.1 | 1.6 | 0.332 | 17.9
C[C@@H]1CN([C@H](C)CO)C(=O)c2cc(NC(=O)Nc3ccccc3)ccc2O[C@H]1CN(C)Cc1ccc(C(=O)O)cc1 | -0.2 | 0.3 | -0.353 | .
Cc1noc(C)c1NC(=O)Nc1ccc2c(c1)C(=O)N([C@@H](C)CO)C[C@@H](C)[C@@H](CN(C)C(=O)Nc1ccc3c(c1)OCO3)O2 | -2.6 | 0.6 | -0.0362 | -14.8
C[C@H]1CN([C@@H](C)CO)C(=O)c2cccc(NC(=O)C3CCOCC3)c2O[C@@H]1CN(C)Cc1ccccc1 | -8.7 | 3.6 | -0.646 | -7.0
CN=C1S/C(=C\c2cn(CC(=O)O)c3ccccc23)C(=O)N1C | 5.9 | 1.4 | -0.264 | -6.9
COc1ccc(-c2nc3ccccc3s2)cc1NC(=O)COc1cccc(C)c1 | 14.3 | 1.3 | . | .
COc1ccc(S(=O)(=O)N(C)C[C@@H]2Oc3ccc(NC(=O)CCC(F)(F)F)cc3CC(=O)N([C@H](C)CO)C[C@@H]2C)cc1 | -7.4 | . | -0.2 | .
COc1ccc(C(=O)Nc2ccc3nc(SCC(=O)Nc4ccccc4F)sc3c2)cc1OC | 16.4 | 0.9 | . | .
COc1ccc(CN(C)C[C@@H]2Oc3ccc(NC(=O)Cc4cn(C)c5ccccc45)cc3C(=O)N([C@@H](C)CO)C[C@H]2C)cc1 | 10.2 | -1.5 | 0.127 | 18.3
O=[N+]([O-])c1ccc2nc(CSc3ncnc4ccccc34)[nH]c2c1 | 13.3 | -4.2 | . | .
C[C@H]1CN([C@@H](C)CO)C(=O)c2cccc(NC(=O)c3ccncc3)c2O[C@H]1CN(C)C(=O)Nc1ccc2c(c1)OCO2 | 5.3 | . | 0.451 | 0.8
C[C@H]1CN([C@@H](C)CO)C(=O)c2cccc(NC(=O)Nc3ccc(C(F)(F)F)cc3)c2O[C@@H]1CN(C)S(C)(=O)=O | -44.6 | -1.1 | 0.298 | -1.8
C[C@H]1CN([C@@H](C)CO)C(=O)c2cccc(NC(=O)NC3CCCCC3)c2O[C@@H]1CN(C)S(=O)(=O)c1cccs1 | 1.0 | . | 0.24 | 20.9
C[C@@H]1CN([C@H](C)CO)C(=O)c2cccc(NC(=O)c3cnccn3)c2O[C@H]1CN(C)S(=O)(=O)c1cn(C)cn1 | -14.1 | 1.5 | -0.156 | 6.9
C[C@@H]1CN([C@@H](C)CO)C(=O)c2cc(NC(=O)Nc3cccc4ccccc34)ccc2O[C@@H]1CN(C)C(=O)Nc1cccc2ccccc12 | 8.9 | -0.9 | 0.236 | 3.0
C[C@@H]1CN([C@H](C)CO)C(=O)Cc2cc(NS(=O)(=O)c3cccs3)ccc2O[C@H]1CN(C)C(=O)Nc1ccc(F)cc1 | -12.8 | -0.5 | 0.233 | .
C[C@H]1CN([C@@H](C)CO)C(=O)c2cccc(NC(=O)CCCCCC(=O)Nc3ccccc3N)c2O[C@H]1CN(C)S(=O)(=O)c1cccs1 | -14.6 | -1.6 | -0.393 | .

Screening results: PubChem, Broad Institute

The list is partial. The share of hits here may be higher or lower than overall.
